# RecA splice inh – Mtb RecA intein splicing inhibition | P9WHJ3 | cell-free RecA intein splicing, fluorescence | inhibition, %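 (about 9 µM by stock and volumes)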 | 290,000 compounds, 0.75% hits | AID 2221; in the data active means inhibition above about 30%; inconclusive means no clear call, values can overlap the other calls;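 further: 0% = vehicle wells and 100% = reference inhibitor control wells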
# Target sequence (P9WHJ3 whole entry, looked up, canonical isoform): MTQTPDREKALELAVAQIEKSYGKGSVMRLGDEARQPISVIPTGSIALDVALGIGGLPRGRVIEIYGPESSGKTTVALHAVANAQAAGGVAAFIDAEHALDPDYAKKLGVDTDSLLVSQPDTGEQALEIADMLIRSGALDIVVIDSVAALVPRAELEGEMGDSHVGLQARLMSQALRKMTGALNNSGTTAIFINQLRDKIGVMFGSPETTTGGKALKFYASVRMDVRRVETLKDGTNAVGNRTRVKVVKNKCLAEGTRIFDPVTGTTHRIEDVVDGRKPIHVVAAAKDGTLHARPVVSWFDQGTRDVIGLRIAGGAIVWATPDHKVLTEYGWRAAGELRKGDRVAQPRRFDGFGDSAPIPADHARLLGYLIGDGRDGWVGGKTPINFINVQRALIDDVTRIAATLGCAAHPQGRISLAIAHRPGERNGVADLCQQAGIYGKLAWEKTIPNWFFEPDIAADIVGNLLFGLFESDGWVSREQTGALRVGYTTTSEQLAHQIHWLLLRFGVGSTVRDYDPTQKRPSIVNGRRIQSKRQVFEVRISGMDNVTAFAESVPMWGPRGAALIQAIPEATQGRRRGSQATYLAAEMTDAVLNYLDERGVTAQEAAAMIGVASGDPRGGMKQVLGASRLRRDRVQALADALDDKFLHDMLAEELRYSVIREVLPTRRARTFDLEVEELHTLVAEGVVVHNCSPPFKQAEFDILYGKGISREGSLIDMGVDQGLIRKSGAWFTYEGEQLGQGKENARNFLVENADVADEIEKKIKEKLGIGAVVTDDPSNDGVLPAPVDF
# Mtb H37Rv – M. tuberculosis H37Rv growth inhibitors, H37Rv strain (AID 1626) | M. tuberculosis H37Rv growth inhibition; higher % means a stronger effect | one-dose inhibition, % at 10 µM; IC50 in µM for titrated hits | 220,000 compounds, 0.95% hits;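 active means confirmed in a dose series; inconclusive means inhibition above 80% but not taken into the dose series; inactive means below 80% or under 30% at every dose of the series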;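 further: bacteria incubated seven days before Alamar blue readout; 0% = bacteria only wells and 100% = bacteria with antibiotic wells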
# Arbovirus anti – blocks arbovirus infection | arbovirus infection cell-based antiviral screen | inhibition, % at 10 µM | 200,000 compounds, 0.37% hits | AID 1251;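 active means inhibition from about 30%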;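 further: bluetongue infection of BSR cells; cell survival read as ATP light after 72 h; 0% = infected wells without compound and 100% = uninfected wells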
# Mtb bLac sens – beta-lactam sensitization of Mtb H37Rv; M. tuberculosis H37Rv growth with meropenem, percent inhibition; hits of this screen are not shown here; inhibition, % at 25 µM; 330,000 compounds, 0.27% hits; AID 434955;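 active means about 74% or more and at least 40 points above the plate without the antibiotic, then above 30% in a dose series; inconclusive means first-round hits that could not be retested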;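 further: growth measured after seven days incubation then overnight dye step; 0% = bacteria only wells and 100% = bacteria with antibiotic; twin plates without the antibiotic show which effects depend on it; some results filed as inactive read as strong as hits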
# YopH PTP inh – inhibitors of Yersinia enterocolitica YopH tyrosine phosphatase | fluorescence Ex485/Em525 | inhibition, %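 (about 10 µM by stock and volumes)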 | 140,000 compounds, 0.16% hits | AID 898;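 active means inhibition of 50% or more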;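 further: controls were vehicle for no effect and minimum signal wells for full effect; inactives centre near -20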
# Arbovirus anti repeat – further read-out of Arbovirus anti, marked with its call; inhibition, %; measured here: 10K subset replicate screen; many hits read low in the repeat;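 first of two repeat runs on a subset; 0% = infected and 100% = uninfected wells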
# * = called active by the depositor; ? = inconclusive; / = not tested or not shown.
SMILES,RecA splice inh,Mtb H37Rv,Arbovirus anti,Mtb bLac sens,YopH PTP inh,others
NS(=O)(=O)c1ccc(NC(=S)N2CCC(Cc3ccccc3)CC2)cc1,2.3,/,/,7,/,
Cc1nnc(N2C(=O)C(O)=C(C(=O)c3ccco3)C2c2ccc(C(C)C)cc2)s1 (stereo unspecified),-1.4,19%,6,-7,-21,
Cc1nn(C)cc1C(C(=O)NC1CCCCC1)N(CCc1ccccc1)C(=O)c1cnccn1 (stereo unspecified),-2.7,-2%,0,-2,/,
O=C(Nc1ccccc1C(=O)NCC1CCCO1)c1ccc(Cl)cc1 (stereo unspecified),-0.4,/,/,-15,/,
CCCn1c(SCC(=O)NC(C)C23CC4CC(CC(C4)C2)C3)n[nH]c1=O (stereo unspecified),-1.7,1%,5,-2,-21,
Cc1oc2c(c1C(=O)Nc1cccc3ccccc13)CCCC2,1.8,3.6µM*,-4,99,9,
O=C(COc1cccc(Br)c1)N/N=C1\CCSC1,1.9,2%,8,10,/,
COC(=O)C1CCN(C(=O)COC(=O)CSc2ccc(C(N)=O)cc2[N+](=O)[O-])CC1,-2.8,/,/,1,/,
COc1cc2[nH]c3c(N4CCC(C(N)=O)CC4)ncnc3c2cc1OC,-4.4,/,-4,-5,-47,
O=C(CCC1CCCCC1)Nc1ccccc1C(=O)N1CCOCC1,-2.3,5%,3,-1,/,
CCOC(=O)N1CCC(NC(=O)c2ccc(Cl)cc2)CC1,1.6,-1%,/,-4,/,
COc1ccc(CCNC(=O)c2noc(C)c2[N+](=O)[O-])cc1OC,1.5,/,/,8,/,
CCN(CCC(=O)O)c1ccccc1,-0.6,-2%,-6,1,4,
COC(=O)c1cccc(S(=O)(=O)N(Cc2ccco2)Cc2cc3cc(OC)ccc3[nH]c2=O)c1,0.4,0%,5,3,-19,
CC(C)(C)c1cc(/C=N/NC(=O)C[n+]2ccccc2)cc(C(C)(C)C)c1O,-0.1,/,/,-7,/,
Cc1nc2c(c3c1[nH]c1ccccc13)C(=O)CC(C)(C)C2,-19,7%,-13,83,-16,
CCC(C)N(C(=O)CSc1ccc(NC(C)=O)cc1)C1CCS(=O)(=O)C1 (stereo unspecified),-1.0,-4%,-6,2,/,
O=S1(=O)CCC(NC(=S)NC2CCS(=O)(=O)C2)C1 (stereo unspecified),-3.4,-4%,13,-9,-35,
CSc1ccc(CN(C)C(=O)CCNS(=O)(=O)c2ccc(C)c(C)c2)cc1,-4.4,/,/,-7,/,
O=C(c1ccc2c(=O)n3c(nc2c1)CCCCC3)N1CCN(c2cccc(Cl)c2)CC1,-3.6,/,/,3,/,

# The final 7 entries of the part above come first, to join the parts.
SMILES,RecA splice inh,Mtb H37Rv,Arbovirus anti,Mtb bLac sens,YopH PTP inh,others
COC(=O)c1cccc(S(=O)(=O)N(Cc2ccco2)Cc2cc3cc(OC)ccc3[nH]c2=O)c1,0.4,0%,5,3,-19,
CC(C)(C)c1cc(/C=N/NC(=O)C[n+]2ccccc2)cc(C(C)(C)C)c1O,-0.1,/,/,-7,/,
Cc1nc2c(c3c1[nH]c1ccccc13)C(=O)CC(C)(C)C2,-19,7%,-13,83,-16,
CCC(C)N(C(=O)CSc1ccc(NC(C)=O)cc1)C1CCS(=O)(=O)C1 (stereo unspecified),-1.0,-4%,-6,2,/,
O=S1(=O)CCC(NC(=S)NC2CCS(=O)(=O)C2)C1 (stereo unspecified),-3.4,-4%,13,-9,-35,
CSc1ccc(CN(C)C(=O)CCNS(=O)(=O)c2ccc(C)c(C)c2)cc1,-4.4,/,/,-7,/,
O=C(c1ccc2c(=O)n3c(nc2c1)CCCCC3)N1CCN(c2cccc(Cl)c2)CC1,-3.6,/,/,3,/,
CCCCCCCCC[n+]1cccc2c3ccccc3ccc21,1.3,56%,-36,91,-20,
CC(=O)c1cc(O)c2ccccc2c1O,70*,-9%,/,4,/,
O=C(CCCl)Nc1nnc(SCC(=O)NC2CCCC2)s1,0.0,/,/,-7,/,
CCC(=O)Nc1c(-c2ccccc2)c(=O)c2ccccc2n1C,-7.8,-5%,/,-4,/,
COc1ccc(-n2c(=S)[nH]c3ccccc32)cc1,4.9,-3%,-3,23,-28,
COc1ccc(C(=O)OC(C)C(=O)NC(C)CCc2ccccc2)cc1OC (stereo unspecified),2.6,/,/,-9,/,
COC(=O)c1ccccc1NS(=O)(=O)c1ccc(O)c(C(=O)O)c1,-0.4,-5%,-1,-3,-55,
CCOc1ccc(NC(=S)NNC(=O)c2cc(Br)ccc2Cl)cc1,0.0,51%,-8,10,/,
Cc1ccc(-c2nc(CS(=O)(=O)CC(=O)NC3CCCCCC3)c(C)o2)cc1,0.1,/,/,-6,/,
O=C(CSc1nc(=O)n2ccccc2n1)N1CCC(Cc2ccccc2)CC1,4.1,/,/,6,/,
N#C/C(C(=O)N1CCOCC1)=C1/SC(Cc2ccccc2)C(=O)N1c1ccccc1 (stereo unspecified),0.0,-3%,5,-12,-35,
CC(C)c1nnc(NC(=O)C2CCCN2S(=O)(=O)c2ccc(Cl)cc2)s1 (stereo unspecified),/,-6%,4,-3,2,
CN1C2C=C3C(C#N)=C(N)C(C#N)(C#N)[C@H](c4c(F)cccc4F)[C@H]3C1CC2 (stereo partly specified),6.7,-5%,1,6,0,
O=C1CSC(c2ccccc2F)N1c1cc(Cl)ccc1O (stereo unspecified),5.5,-1%,6,1,-48,
COc1ccc2[nH]c(=O)c(-c3nnn(-c4ccc(F)cc4)n3)cc2c1,-16,-1%,/,-2,/,
CCN(CC)c1ccc(NC(=O)c2cccc(C)c2)cc1S(=O)(=O)Nc1ccccc1OC,3.4,10%,8,12,-24,
CC1=C/C(=C\c2ccc3c(c2)OCO3)C(=O)S1,0.1,/,3,5,-13,
CSc1ccccc1NC(=O)CN(C)CC(=O)Nc1ccc(Cl)cc1[N+](=O)[O-],1.1,1%,10,3,/,
O=C(Cc1ccc(Cl)cc1)NNC(=S)NC(=O)c1cccnc1,-0.5,0%,-1,0,/,
O=C1C=CC(=O)C(C2=C3C(=O)N(CCc4ccccc4)CC(=O)N3CCC2)=C1,16,-7%,2,2,67*,
COc1cccc(-n2c(SCC(N)=O)nnc2-c2ccco2)c1,-0.1,/,/,4,/,
CC1CCCC(C)N1C(=O)CSc1nnc(C2CCCCC2)o1 (stereo unspecified),1.1,5%,1,-4,-21,
Cc1cc(C)cc(OCCOc2cccc(C=C3C(=O)NC(=O)NC3=O)c2)c1,11,/,/,29,/,
C=C1C(=O)O[C@@H]2C[C@@H](C)[C@@H]3C=CC(=O)[C@@]3(C)[C@@H](O)[C@H]12,7.4,3.8µM*,/,100,/,
CNC(=O)COc1coc(CN2CCN(c3ccccc3)CC2)cc1=O,0.8,/,/,-9,/,
CCOC(=O)N1CCN(C(=O)c2cc3c(s2)-c2ccc(Cl)cc2S(=O)(=O)C3)CC1,-0.9,-3%,-1,-9,/,
CCNc1c(NC(=O)c2ccc3c(c2)OCO3)c(=O)oc2ccccc12,-2.8,/,/,-3,/,
CC(=O)Nc1ccc(NC(=O)C(C)OC(=O)/C(C#N)=C/c2ccc(N(C)C)cc2)cc1 (stereo unspecified),-1.1,/,/,-4,/,
COc1ccccc1Nc1ccc(N)cc1,8.0,58%,3,-11,/,
CCOC(=O)N1CCN(C(=O)c2ccc3c(c2)N(CC)CCS3)CC1,-8.0,4%,2,-3,-44,Arbovirus anti repeat=4
C=CCn1c(SCC(=O)Nc2sc(C)c(C)c2C(=O)OCC)nnc1-c1sc(N)nc1C,-3.5,3%,0,-1,0,
O=C1C2(c3ccccc3)CN(CCO)CC1(c1ccccc1)CN(CCO)C2,-1.5,-7%,5,-3,11,
NC1=NC(=O)/C(=C\c2ccsc2)S1,0.0,-3%,4,-8,/,
CCOc1ccc(OCC)c(NC(=O)C2CCN(S(=O)(=O)c3ccc4c(c3)CC(C)N4C(C)=O)CC2)c1 (stereo unspecified),0.4,/,/,16,/,
Cc1cccc(N(C)S(=O)(=O)c2ccc(-c3cnc(C4CC4)o3)cc2)c1,10,/,/,4,/,
CC1(C)CC(=O)C2=C(C1)OC(N)=C(C#N)C2Cc1ccccc1 (stereo unspecified),-1.4,1%,0,5,-26,
COC(=O)[C@H](CC(C)C)NCc1cccc(CN[C@@H](CC(C)C)C(=O)OC)c1,-0.7,/,/,-5,/,
Cc1cccc(N(CC(=O)NC2CCCC2)C(=O)CCC(=O)Nc2cc(C)on2)c1,-2.7,/,/,3,/,
Cc1cc(CNC(=O)c2ccc3oc(C(C)C)nc3c2)nn1C,-0.5,/,/,2,/,
O=C(Cc1ccccc1)NC(NC(=S)Nc1cc(Cl)ccc1Cl)C(Cl)(Cl)Cl (stereo unspecified),0.7,-8%,5,?,-19,
CC12CC3CC(C)(C1)CC(C(O)CN1CCOCC1)(C3)C2 (stereo unspecified),2.4,/,/,-1,/,
CC1CCC(C(C)C)C(OC(=O)COC(=O)c2ccc(=O)[nH]c2)C1 (stereo unspecified),3.0,-1%,1,2,-5,
Cc1c(NC(=O)C(C)OC(=O)CNC(=O)c2ccccc2)c(=O)n(-c2ccccc2)n1C (stereo unspecified),4.9,-5%,4,-13,-9,
Cc1ccc(SCc2nc(N)nc(Nc3ccccc3C)n2)cc1C,2.2,11%,-2,90,-27,
CCOC(=S)N/C(=N\S(=O)(=O)c1ccccc1)c1ccccc1,-2.8,2%,4,-4,-10,
COc1cccc(N2C(=O)C3CCCN3C2c2ccc(N(C)C)cc2)c1 (stereo unspecified),2.8,1%,1,-8,-12,
COC(=O)c1cc(C)ccc1OCc1ccc([N+](=O)[O-])cc1,2.4,-9%,/,-1,/,
Cn1c(=O)c2ncn(CC(=O)NC3CCCCCC3)c2n(C)c1=O,2.2,3%,6,-3,-10,
COCCCNCCOCCOc1ccc(Cl)cc1Br,0.5,4%,-31,12,-27,
CC(C)(C)c1cc(NCc2ccccn2)n2ncc(-c3ccccc3)c2n1,-0.7,?,/,98,/,
N#CC1=C(N)Oc2n[nH]c(-c3ccccc3)c2C1c1cccnc1 (stereo unspecified),80*,-14%,3,6,-26,
Cc1ccc(NC(=O)O/N=C/c2ccc(F)cc2)cc1,0.6,/,/,-3,/,
CC1(C)C(CC2OCC(CN3CCCCC3)O2)[C@H]2CC[C@@H]1C2 (stereo partly specified),-0.2,-8%,/,-6,/,
CC(C)CC(COCc1ccc([N+](=O)[O-])cc1)N1CCN(C(=O)c2ccc(C(F)(F)F)cc2)CCC1=O (stereo unspecified),3.6,-1%,-16,-8,2,
CCC(CC)c1nnc(NC(=O)c2nn(C)c(=O)c3ccccc23)s1,2.6,9%,5,21,/,
Cc1ccccc1SCC(=O)OCC(=O)Nc1sccc1C(N)=O,-0.7,-16%,3,-4,-18,
Cc1csc(NC(=O)CSc2nc(C)nc3c2c(=O)n(C)c(=O)n3C)n1,-0.5,3%,-6,-4,-42,
N#Cc1ccc(C(=O)NCC(c2ccco2)N2CCCC2)cc1 (stereo unspecified),-4.2,0%,1,-5,-34,
CC1CCN(C(=O)c2[nH]cnc2C(=O)N[C@@H](CCCCNC(=O)OC(C)(C)C)C(=O)OC(C)(C)C)CC1,-1.6,-6%,/,6,/,
COc1ccc(CN2C(=O)CC(Cc3cc(C)cc(C)c3)C2=O)cc1OC (stereo unspecified),0.1,-1%,9,-2,-5,

# New compounds follow.
SMILES,RecA splice inh,Mtb H37Rv,Arbovirus anti,Mtb bLac sens,YopH PTP inh,others
Cc1ccc2nc(SCC(=O)c3ccc(Cl)s3)[nH]c2c1,2.2,-14%,3,-2,-24,
CN(C)C(=O)Oc1noc2cc(Cl)ccc12,-2.5,7%,/,3,/,
CCn1ncc(Br)c1C(=O)NC(C)c1ccccc1 (stereo unspecified),13,1%,6,0,-14,
COc1ccc(CCN(Cc2ccccn2)C(=S)Nc2cccc(C)c2)cc1OC,1.9,7%,16,1,/,
COc1ccc(CCNC(=O)Nc2cc(F)c(F)cc2Cl)cc1OC,0.3,/,/,65,/,
CC(Nc1ccc(Br)cc1)C(=O)N/N=C/c1ccccc1OCc1ccccc1 (stereo unspecified),-0.9,-4%,1,13,-1,
CC(=O)Nc1ccc(S(=O)(=O)NCCSCc2ccc(Cl)cc2Cl)cc1,4.7,12%,2,2,-41,
Cc1ccc(C(=O)CCC(=O)NC2CCCC(C)C2C)cc1 (stereo unspecified),0.2,/,/,-16,/,
COC(=O)c1[nH]c2c(c1C)C(=O)CC(c1ccc(OC)c(OC)c1)C2 (stereo unspecified),0.3,/,/,-4,/,
COc1ccc(C(=O)OCC(=O)Nc2sccc2C(N)=O)cc1OC,-0.7,/,/,-7,/,

# From PubChem BioAssay

# Not all compounds are listed; rates above refer to the full screens.
